Bioassay records deposited in PubChem by Johns Hopkins Ion Channel Center.
KCNQ2 enhance – potentiators of rat KCNQ2 potassium channel; Potassium voltage-gated channel subfamily KQT member 2 (Rattus norvegicus), O88943; B-score at 10 µM; CHO-K1 KCNQ2, FluxOR thallium flux fluorescence; hits give high values; 310,000 tested, 0.54% active;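 active = fluorescence ratio B-score at least 3 SD of library B-scores, with initial fluorescence B-score within 3 SD, cut at about 5.3 in these data; same plate scores as AID 2156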;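 also: B-score of peak minus minimum over baseline fluorescence ratio after K+ and Tl+ stimulus; positive B-score means potentiation of KCNQ2 with more thallium influx and brighter signal; only the inactives scoring about 0 or higher are listed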
Target sequence (O88943 whole entry, looked up): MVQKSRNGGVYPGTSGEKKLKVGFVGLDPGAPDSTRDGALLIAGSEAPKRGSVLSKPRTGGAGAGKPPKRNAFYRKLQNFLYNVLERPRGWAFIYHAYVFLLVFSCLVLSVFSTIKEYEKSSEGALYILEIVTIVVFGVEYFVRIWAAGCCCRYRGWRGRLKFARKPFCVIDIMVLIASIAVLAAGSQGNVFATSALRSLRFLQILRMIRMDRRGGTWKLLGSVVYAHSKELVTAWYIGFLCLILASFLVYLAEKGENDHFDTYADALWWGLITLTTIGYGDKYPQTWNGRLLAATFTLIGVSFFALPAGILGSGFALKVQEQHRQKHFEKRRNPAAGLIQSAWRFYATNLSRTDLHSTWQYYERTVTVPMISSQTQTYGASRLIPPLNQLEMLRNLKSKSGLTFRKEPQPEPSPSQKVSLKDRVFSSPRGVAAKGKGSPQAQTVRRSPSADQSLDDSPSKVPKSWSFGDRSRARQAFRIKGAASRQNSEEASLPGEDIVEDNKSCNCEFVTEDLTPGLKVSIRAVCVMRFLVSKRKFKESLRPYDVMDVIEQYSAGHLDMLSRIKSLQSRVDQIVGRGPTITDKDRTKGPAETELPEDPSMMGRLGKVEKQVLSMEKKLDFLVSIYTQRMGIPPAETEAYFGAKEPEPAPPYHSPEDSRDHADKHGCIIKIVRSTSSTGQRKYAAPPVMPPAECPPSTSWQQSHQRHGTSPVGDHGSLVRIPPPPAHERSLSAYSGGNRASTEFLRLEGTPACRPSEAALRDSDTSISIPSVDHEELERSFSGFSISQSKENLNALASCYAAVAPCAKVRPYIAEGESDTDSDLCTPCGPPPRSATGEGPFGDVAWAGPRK
KCNQ2 enhance baseline – second read-out of KCNQ2 enhance, no call of its own (marks repeat the call); B-score; compound at 10 µM; measured here: initial fluorescence intensity artifact check;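 brightness before thallium and not channel activity; 0 = typical well and far values either way flag optical interference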
Active calls of the source: *; x = not tested or not shown. The list is partial (hit frequency here may not be typical).

KCNQ2 enhance baseline	KCNQ2 enhance	SMILES
-0.07	0.88	COc1cccc(-c2cc(C(=O)Nc3cc(C)on3)no2)c1
-0.32	0.01	COc1ccc2nc(Nc3nc4cc5c(cc4s3)OCCO5)sc2c1
-0.59	0.91	CC(=O)Nc1ccc2c(COC(=O)[C@H](C)N3C(=O)C4CCCCC4C3=O)cc(=O)oc2c1 (stereo partly specified)
-0.06	0.41	CSC1=NCCN1C(=O)c1ccc(S(=O)(=O)N2CCCCC2)cc1
-0.58	0.02	CC(C)(C)SCCNS(=O)(=O)c1ccc2ccccc2c1
-1.3	0.36	COC(=O)c1sc2ncn(N)c(=O)c2c1C
-0.5	1.2	CC(C)n1c(-c2cccs2)nc2ccccc21
0.29	0.58	CC(=O)NN1C(=O)c2ccccc2NC1c1ccoc1 (stereo unspecified)
-0.91	3.6	O=C(O)c1ccc(Cl)c(S(=O)(=O)NC(Cc2ccccc2)C(=O)O)c1 (stereo unspecified)
2.9	0.65	C/C(=N\NC(=O)c1ccc(Br)cc1)c1ccccc1
-0.57	0.27	Cc1cccc(NC(=O)CSCC(=O)Nc2cccc(S(=O)(=O)N3CCCCCC3)c2)c1
0	0.97	Cc1cc(C(=O)OCC(=O)Nc2ccc(F)c(F)c2F)c(C)o1
1.2	0.04	COCCCN1CC(=O)N2C(c3ccccc3)c3[nH]c4ccccc4c3C[C@H]2C1=O (stereo partly specified)
1.3	1.4	CCCCSc1nc2c(c(=O)[nH]1)CCC2
-0.91	0.13	Cc1cccc(NC(=O)CNC(=O)c2ccco2)n1

Single entries from the entries so far:
COC(=O)c1sc2ncn(N)c(=O)c2c1C | KCNQ2 enhance: 0.36
COCCCN1CC(=O)N2C(c3ccccc3)c3[nH]c4ccccc4c3C[C@H]2C1=O (stereo partly specified) | KCNQ2 enhance: 0.04

(further entries)
KCNQ2 enhance baseline	KCNQ2 enhance	SMILES
-0.57	0.25	Cn1nc(C(=O)Nc2cccnc2)c2ccccc2c1=O
0.15	2.3	COc1ccc(C(=O)N/N=C(/C)c2cccc(NC(=O)c3ccncc3)c2)cc1OC
0.35	1	Cc1cc(C)nc(N2CCCC(C(=O)NCc3cccc(C(F)(F)F)c3)C2)n1 (stereo unspecified)
0.53	2	COc1ccccc1N(CC(=O)NC(C)(C)C)C(=O)CCC(=O)Nc1ccccn1
-0.7	2.6	CCc1cccc(NC(=O)Cn2cc(C=O)c3ccccc32)c1
1.4	0.03	CCOC(=O)c1nnn(-c2nonc2N)c1CNc1ccc(C)c(Br)c1
2.3	0.35	CCCCC1CCCOC(C(=O)NCCNCCO)(C(F)(F)F)C1 (stereo unspecified)
-0.23	0.45	CCC1CCCCN1CCCNC(=O)Cn1cnc2sc(C)c(S(=O)(=O)N3CCC(C)CC3)c2c1=O (stereo unspecified)
-3	0.49	COc1ccc(/C=N\NC(=O)c2ccccc2[N+](=O)[O-])cc1COc1c(F)c(F)c(F)c(F)c1F
-0.63	0.77	c1ccc(-c2nccnc2-c2ccccc2)cc1
0.36	0.33	COc1ccc(N(C(C)=O)c2nc(C)cc(C)c2C#N)c(OC)c1
0.06	0.45	COc1cccc(OC)c1OCCCCN1CCCCC1
0	0.16	Cc1ccc2cccc(SCC(=O)NCC#N)c2n1
-1.7	1.8	COC(=O)c1c(C(=O)OC)c2n(c1C)Cc1ccccc1C2
-1.1	0.16	CCOC(=O)c1sc2ccccc2c1NC(=O)c1coc2ccccc2c1=O

Exported field by field: 4 of the compounds above
O=C(O)c1ccc(Cl)c(S(=O)(=O)NC(Cc2ccccc2)C(=O)O)c1 (stereo unspecified)
- KCNQ2 enhance baseline: -0.91
- KCNQ2 enhance: 3.6
C/C(=N\NC(=O)c1ccc(Br)cc1)c1ccccc1
- KCNQ2 enhance baseline: 2.9
- KCNQ2 enhance: 0.65
Cc1cccc(NC(=O)CSCC(=O)Nc2cccc(S(=O)(=O)N3CCCCCC3)c2)c1
- KCNQ2 enhance baseline: -0.57
- KCNQ2 enhance: 0.27
Cc1cc(C(=O)OCC(=O)Nc2ccc(F)c(F)c2F)c(C)o1
- KCNQ2 enhance baseline: 0
- KCNQ2 enhance: 0.97

More compounds.
KCNQ2 enhance baseline	KCNQ2 enhance	SMILES
-1.4	1.6	O=C(CSc1nnc(-c2ccco2)n1-c1ccccc1Cl)Nc1cccc(C(=O)O)c1
-0.01	1.8	O=C(CCNC(=O)c1ccc(Br)o1)NCc1ccc(Cl)cc1
0.05	0.76	CCOc1ccccc1NC(=O)c1nc(S(=O)(=O)Cc2cccc(C)c2)ncc1Cl
x	-5.6	O=C(COc1ccc(Br)cc1)N1CCC(c2ccccc2)C1 (stereo unspecified)
-0.22	1.2	CCN(CC)CCn1c(NCc2cccc(OC)c2)nc2ccccc21
-0.1	1.2	Cc1c(NC(=O)C(C#N)=C2CCCCC2)c(=O)n(-c2ccccc2)n1C
1	1.1	CCC1Oc2ccc(C)cc2N(CC(=O)NCCCN2CCCCC2CC)C1=O (stereo unspecified)
0.32	0.02	COc1cc(OC)c(-n2c(C)cc(C=O)c2C)cc1Cl
-0.13	0.09	CC1CCC2(CC1)OCC1(CCC3(COC4(CCC(C)CC4)OC3)C1=O)CO2 (stereo unspecified)
-0.11	1	O=C(CSc1nnc(-c2cccs2)n1-c1ccccc1)c1ccc2c(c1)OCCO2
-1.7	0.09	c1ccc(OCc2nc(-c3cccs3)no2)cc1
1.5	0.92	O=C(Nc1c(C(=O)N2CCCCC2)cnn1-c1ccccc1)c1ccco1
-1.2	0.36	O=C(CC(c1ccccc1)c1ccccc1)Nc1ccc(C(=O)O)cc1
-1.4	0.75	Cc1cc(Cl)ccc1NC(=S)NCc1ccc(Cl)cc1
1.1	0.88	CC(=O)c1sc2c(c1N)c(=O)[nH]c(=O)n2-c1ccccc1
0.14	0.87	Cc1nnc(NC(=O)c2ccc(F)c(S(=O)(=O)N3CCCCC3)c2)s1
-1.2	2.6	Cc1cc(C)nc(SCC(=O)Nc2ccc(S(=O)(=O)NC(C)(C)C)cc2)n1
0.45	0.77	O=S(=O)(NCc1cccnc1)c1ccc(Cl)nc1
-1.2	0.8	COc1cc(Nc2ncnc(N)n2)cc(OC)c1OC
-1.4	1.1	CCC1Oc2ccc(C)cc2N(CC(=O)NCCCN2CCN(Cc3ccccc3)CC2)C1=O (stereo unspecified)
-0.68	1.7	O=C(Cc1ccccc1)Nc1ccc(NC(=O)Cc2ccccc2)c(Cl)c1
-0.61	0.34	Cc1ccc(C2=NOC(C)(c3sc(-c4ccc(Cl)cc4)nc3C)C2)cc1 (stereo unspecified)
1.4	0.37	CC(C)N(C(=O)Cn1c(=O)oc2ccccc21)c1ccccc1
0.46	0.04	COc1cccc2cc(C(=O)N3CCN(C(=O)c4ccco4)CC3)c(=O)oc12
-0.96	0.3	COc1ccc(C(=O)/C=C/C(=O)N(CC(=O)NC2CCCCC2)CC2CCCO2)c(O)c1 (stereo unspecified)
0.45	0.01	C/C(=N\S(=O)(=O)c1ccc(C)cc1)Nc1cc(C(C)C)c(O)cc1C
-0.29	1.1	Cc1ccc(NC(=O)c2sc3nc[nH]c(=O)c3c2C)c(C)c1
-1.7	0.04	CCOc1c2ccc(C(=O)NCc3ccc(OC(F)(F)F)cc3)cc2nn1C
-0.03	0.27	Cc1ccc(SCc2noc(C(=O)NC(C)C)c2C(=O)O)cc1C
0.26	0.08	O=C(CSc1nnc(-c2cccnc2)n1-c1ccccc1)NCc1ccc2c(c1)OCO2
-0.33	2.2	O=C(NC(=S)Nc1ccc(Br)cc1)C1CCC1
-1.5	0.71	CCCCCc1nnc(NC(=O)Cn2cnc3ccccc3c2=O)s1
-0.21	0.46	COc1ccc(C(=O)NCCNc2nc3ccc(C)cc3cc2C#N)cc1OC
-1.4	0.19	CS(=O)(=O)N1CCN(c2ccccc2NC(=O)C(c2ccccc2)c2ccccc2)CC1
0.21	2	CCc1cc(N2CCOCC2)cc2c1[nH]c1ccccc12
-0.02*	6.8*	Cc1onc(-c2c(Cl)cccc2Cl)c1C(=O)c1ccc(F)cc1
-1.6	1.3	CC(C)CCNC(=O)C(=O)NCC1OCCCN1S(=O)(=O)c1cccs1 (stereo unspecified)
-2.3	4.1	Cc1ccc(NC(=O)c2ccccc2O)cc1
0.57	0.93	CC(C)Oc1ccc(C2CC(=O)N(c3ccccc3)C2=O)cc1 (stereo unspecified)
-0.01	0.05	CCOC(=O)c1cccc(NS(=O)(=O)c2c(C(=O)N3CCCCCC3)c(C)n(C)c2C)c1
-0.27	3.2	CCCNc1nc2c(c(=O)[nH]c(=O)n2C)n1CCC(C)C
0.07	0.69	CC(C)Cn1c(N)c(C(=O)CSc2ccccc2)c(=O)n(C)c1=O
-1.2	0.78	COc1ccc(OC)c(/C=C/C(=O)Oc2ccc(C(C)=O)cc2)c1
-1	0.64	Cc1ccccc1NC(=O)CC1c2ccccc2CC(C)(C)N1C (stereo unspecified)
-0.06	1.8	Cc1cccc(NC(=S)/N=C(\N)Nc2nc(C)c3cc(C)ccc3n2)c1
-1.6	0.56	Cc1ccc(C(=O)Oc2ccc(C(=S)N3CCOCC3)cc2)cc1
1.5	0.04	Cc1nc(SCC(=O)NCc2cccs2)nc(C)c1C
2	0.23	O=C(Nc1ccc(-c2noc(-c3ccccc3F)n2)cc1)c1cccs1
0.27	1.7	N/C(=N\OC(=O)CCCN1C(=O)c2ccccc2C1=O)c1ccccn1
-0.24	0.85	COc1ccccc1NS(=O)(=O)c1cccc(NC(=O)c2cc3ccccc3oc2=O)c1
-0.6	0.95	CSc1ncccc1C(=O)Nc1ccc(F)c(F)c1F
-1.7	0.02	CC(=O)Nc1ccc(S(=O)(=O)N2CCN(C(=O)N3CCCCC3)CC2)cc1
0.1	1.3	C=CCNC(=S)/C(=C(/[O-])c1ccc([N+](=O)[O-])cc1)[n+]1ccccc1
-1.1	0.74	O=C(NCCCN1CCOCC1)c1cc2c(s1)CCCC2
-0.88	0.03	COc1ccc(NC(=O)C/C(C)=N/NC(=O)c2cnccn2)cc1
0.04	1.2	COc1ccc(NC(=O)CCc2ccc(OC)c(OC)c2)cn1
-4.7	1.5	Cc1nc2c(cc1C(=O)N/N=C/c1ccc(O)c(O)c1)c(=O)n(C)c(=O)n2C
0.44	0.28	CC1CC(=O)N(CC(=O)Nc2ccc(F)cc2)c2ccccc2S1(=O)=O (stereo unspecified)
0.77	1.8	Cc1nc(SCC(=O)O)n[nH]1
-3.9	0.14	Cc1ccc(-c2c(C)sc3ncn(CC(=O)N4CCOCC4)c(=O)c23)cc1C

A draw from above in order of count of non-hydrogen atoms, low to high:
KCNQ2 enhance baseline	KCNQ2 enhance	SMILES
1.5	0.04	Cc1nc(SCC(=O)NCc2cccs2)nc(C)c1C
-0.29	1.1	Cc1ccc(NC(=O)c2sc3nc[nH]c(=O)c3c2C)c(C)c1
2.3	0.35	CCCCC1CCCOC(C(=O)NCCNCCO)(C(F)(F)F)C1 (stereo unspecified)
-0.1	1.2	Cc1c(NC(=O)C(C#N)=C2CCCCC2)c(=O)n(-c2ccccc2)n1C

(listing goes on)
KCNQ2 enhance baseline	KCNQ2 enhance	SMILES
0.44	0.37	CCc1ccc(Nc2oc(C)cc(=O)c2C(C)=O)cc1
-0.8	3.5	Cc1c(Br)cc(C(=O)NCc2ccco2)c(C)c1C
-0.13	1.3	Cn1c(CCN2CCN(c3ccc(F)cc3)CC2)nc2cc(NC(=O)c3ccco3)ccc21
-0.04	0.01	Cc1nn(-c2ccccc2)c(C)c1NC(=O)COc1ccc(Br)cc1Cl
-0.62	0.1	Cc1cc(C)c2cc(CN(CC3CCCO3)S(=O)(=O)c3ccc4c(c3)OCCO4)c(=O)[nH]c2c1 (stereo unspecified)
1.8	0.29	CC1(C)Cc2c(sc(NC(=O)c3ccc(Br)o3)c2C#N)CO1
-1	0.21	OCC[C@@H]1C[C@@H](O)[C@H](O)[C@@]2(CCc3ccccc3CO2)O1
1.7	0.28	O=C(CC1C(=O)NCCN1CC(c1ccccc1)c1ccccc1)NCCc1cn[nH]c1 (stereo unspecified)
-0.24	1.1	COc1cc(/C=C2\N=C(C)OC2=O)cc(Cl)c1OC(C)=O
-0.02	1.5	CCOc1cc(C)ccc1OCc1nnc(SCC(=O)Nc2cccc(C(=O)O)c2)n1-c1ccccc1
0.01	0.5	COc1ccc2cnn(-c3ccccc3C)c(=O)c2c1OC
-0.05	1.8	O=C(Cc1ccccc1)Nc1ccc(N2CCCC2)cc1
-1.4	2.8	COc1cccc(NC(=O)CC2Oc3ccccc3NC2=O)c1 (stereo unspecified)
0.11	0.99	COC(=O)CSc1nc2[nH]ncc2c(=O)[nH]1
0	0.01	O=C(CC(C(=O)O)c1cccc(Cl)c1Cl)c1ccccc1 (stereo unspecified)
-1.3	0.07	CCCS(=O)(=O)c1nc(S(=O)(=O)c2ccc(C)cc2)c(NCCN2CCOCC2)s1
-0.1	0.04	CCOC(=O)c1nnsc1Nc1ccc(C)c(C)c1
-2.2	0.29	CCc1cccc(C)c1NC(=O)CN1C(=O)c2ccccc2S1(=O)=O
0.97	0.02	O=C(CCc1ccccc1)Nc1ccc(S(=O)(=O)N2CCOCC2)cc1
-0.89	0.33	c1ccc(CSc2ncnc3sccc23)cc1
1.2	0.12	Cc1ccc(C(C(=O)NC2CCCC2)N(C(=O)c2csnn2)C2CCCC2)o1 (stereo unspecified)
0.67	1.2	COc1ccc(/C=C(/NC(=O)c2ccccc2)C(=O)N2CCCCC2)cc1OC
-0.02	1.1	O=C(CNC(=O)c1ccccc1F)N/N=C/c1ccco1
-0.7	0.66	COc1ccc(C(=O)N/N=C/c2ccc(N3CCOCC3)o2)cc1OC
-0.9	0.89	COc1cccc(NS(=O)(=O)c2ccc3c(c2)N(C(C)=O)CCS3)c1
1.4	0.29	CCCCNC(=O)/C(C#N)=C/c1ccc(-c2ccc(S(=O)(=O)N3CCOCC3)cc2)o1
-1.8	1	COc1ccc(NC(=O)COC(=O)C2=COCCO2)cc1OC
